# Screening results deposited in PubChem BioAssay by several laboratories.
# RN4220 kill = kills Staphylococcus aureus RN4220; S. aureus RN4220 growth, OD600, 16 h; inhibition, % (concentration not given with the values); actives 0.33% (n = 330,000); AID 1259311;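 active = z-score of -3 or lower and OD600 up to 0.18 on both plates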;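 note: plate controls were untreated cells for no effect and reference antibiotic for full effect; stock transfer was 100 nL into about 80 µL; one replicate is shown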
# BJeLR viability = kills HRASV12-expressing BJeLR cells | AID 1554 | inhibition, % (test concentration not listed) | BJeLR (HRASV12) viability, CellTiter-Glo ATP luminescence, 48 h; reference of the scale not given here | actives 0.17% (n = 300,000);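 active = replicate mean above 50%; inconclusive = above 50% but judged a plate artefact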;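 note: 50 nL library stock added to about 25 µL; numbers are from one replicate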
# ugtP null kill = kills S. aureus RN4220 lacking UgtP. S. aureus RN4220 ugtP deletion, OD600 growth, 16 h; some inactives read as strong as hits. growth inhibition, % (no concentration beside the values). actives 0.54% (n = 330,000). AID 1259309;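 active = z-score under -3 and OD600 up to 0.15 on both plates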;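 note: plate controls were untreated wells for no effect and antibiotic for full effect; wells of about 80 µL received 100 nL stock; the first replicate is given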
# Bead autofluor = counter-screen for toxin protease inhibitors: compound fluorescence; AID 624483; fluorescence intensity (concentration not given with the values); actives 3.1% (n = 360,000); compound autofluorescence counterscreen, microsphere flow cytometry; hits give high values;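 active = at least 3 SD above the mean of all compounds, about 16000 in these data; inconclusive = too few beads counted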;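 note: 100 nL of 1 mM stock went into each well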
# Mtb hypoxia rep = reduces hypoxia-regulated biosensor signal in M. tuberculosis | M. tuberculosis hypoxia-regulated fluorescent reporter, fluorescence | fluorescence inhibition, % (concentration not given with the values) | actives 0.1% (n = 300,000) | AID 1159583;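 active = 35 to 45% if threefold the growth effect, above 45% if 1.5-fold the growth effect; inactive = the rest, general growth blockers included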;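 note: wells of about 50 µL received 100 nL stock; 0% = vehicle wells and 100% = reference inhibitor wells; whole bacteria with a GFP reporter of the hypoxia response; strong numbers were not always called active; many hits fall short of the cut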
# PrP UTR inh = suppresses PrP 5' UTR mRNA reporter expression; cell-based PrP 5' UTR mRNA reporter, plate reader; inhibition, % (concentration not given with the values); actives 0.35% (n = 340,000);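 active = every replicate at 50% or more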;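 note: 0 = median of the neutral control wells; tested in H4 reporter cells; numbers are from one replicate; inactives centre near -14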
# Mtb hypoxia rep growth = further read-out of Mtb hypoxia rep, marked with its call; growth inhibition, %; measured here: M. tuberculosis growth (absorbance);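 0% = vehicle and 100% = reference antibiotic; read after six days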
# Numbers without * were called inactive; ? = inconclusive; / = no result given. Outcome played no part in choosing rows; any-hit rate near 4%.
# The first three records as a preview:
cpd	molecule	RN4220 kill	BJeLR viability	ugtP null kill	Bead autofluor	Mtb hypoxia rep	Mtb hypoxia rep growth	PrP UTR inh
1	COC(=O)c1sccc1NC(=O)c1ccnn1C	1.3	-15.0	-2.0	5742	4.3	14.8	-14.2
2	CN(CCCC(=O)NC1CC(C)(C)NC(C)(C)C1)S(=O)(=O)c1ccc([N+](=O)[O-])cc1	4.2	-1.2	1.9	4803	-5.5	9.5	-28.2
3	CCCCn1c(=O)nc2n(-c3ccc(OC)cc3)c3ccccc3cc-2c1=O	0.8	-6.5	1.5	3613	2.7	-3.9	12.2

# The listing, from the first entry:
cpd	molecule	RN4220 kill	BJeLR viability	ugtP null kill	Bead autofluor	Mtb hypoxia rep	Mtb hypoxia rep growth	PrP UTR inh
1	COC(=O)c1sccc1NC(=O)c1ccnn1C	1.3	-15.0	-2.0	5742	4.3	14.8	-14.2
2	CN(CCCC(=O)NC1CC(C)(C)NC(C)(C)C1)S(=O)(=O)c1ccc([N+](=O)[O-])cc1	4.2	-1.2	1.9	4803	-5.5	9.5	-28.2
3	CCCCn1c(=O)nc2n(-c3ccc(OC)cc3)c3ccccc3cc-2c1=O	0.8	-6.5	1.5	3613	2.7	-3.9	12.2
4	N#CCCn1cc(C(=O)N2CCOCC2)c(-c2ccc3c(c2)OCCO3)n1	-0.5	-3.3	3.1	4341	0.9	-2.2	-17.7
5	CCCCOC(=O)C1=C(C)NC(=O)NC1c1cccc([N+](=O)[O-])c1 (stereo not drawn)	2.5	-3.3	4.7	/	1.0	2.0	-6.9
6	CCOc1ccccc1N=C1SC(CC(=O)Nc2ccc(OC)cc2OC)C(=O)N1CCC1=CCCCC1 (stereo not drawn)	-6.0	-3.8	-0.9	2688	-1.5	3.0	-18.1
7	O=C(Nc1ccc(N2CCCCC2)cc1)c1ccccn1	1.9	44.0	0.9	5457	4.2	8.4	92.6*
8	Cc1cc(C(=O)NCC(=O)Nc2c(C)cccc2C)c2ccccc2n1	-2.4	/	3.4	6351	13.4	10.2	-38.3
9	NC(=O)COC(=O)c1ccc2c(c1)S(=O)(=O)c1ccccc1C2=O	6.5	-6.4	12.0	3630	8.6	7.6	-20.8
10	O=c1c2c3c(sc2ncn1/N=C/c1ccccc1)CCCC3	/	-9.8	/	3047	/	/	-35.3
11	N#CCC(=N)N1CCN(c2ccccc2)CC1	3.8	8.1	-0.5	2868	/	/	-12.9
12	CCOC(=O)Oc1ccc2c(=O)c(Oc3cc(C)cc(C)c3)coc2c1	12.7	4.5	62.6	22166*	4.4	8.7	-24.6
13	CCCNc1nc(OC)nc(N2CC3CC(C2)c2cccc(=O)n2C3)n1 (stereo not drawn)	3.5	4.6	7.2	4466	10.8	1.1	-25.4
14	CC(=O)Nc1nnc(SCC(=O)c2ccc3c(c2)Cc2ccccc2-3)s1	-2.3	1.9	-16.7	11184	-0.3	-0.3	-7.8
15	O=c1c(-c2ccc(F)cc2)coc2c3c(ccc12)OCCO3	2.4	-4.5	0.7	?	-7.3	0.3	-120.6
16	CCOC(=O)c1ccc(NC(=O)CN2CCN(Cc3ccccc3)CC2)cc1	5.9	33.5	1.9	3333	3.5	6.6	-11.7
17	Cc1ccc(C(=O)N2CCc3cc4c(cc3C2C)OCCCO4)cc1 (stereo not drawn)	-3.2	2.5	-2.0	5392	-8.0	-3.6	-21.8
18	COc1ccc(-c2cn3cc(C(F)(F)F)cc(Cl)c3n2)cc1	-5.8	-33.5	5.2	4635	1.3	-5.9	-77.4
19	O=C(NCCc1ccccc1)C1CCCN(S(=O)(=O)c2cccc3nonc23)C1 (stereo not drawn)	-0.8	-4.7	7.6	2700	/	/	-15.4
20	COc1ccc(-c2nnc(SCC(=O)NCC3CCCO3)o2)cc1 (stereo not drawn)	-1.6	5.5	0.0	5230	6.7	3.4	0.0
21	Cc1ccc(OCCCC(=O)Nc2ccc(S(=O)(=O)N3CCOCC3)cc2)cc1	1.9	/	4.6	8507	30.4*	55.5*	-21.5
22	CC1CCCC(C)N1NC(=O)c1cccc(S(=O)(=O)N2CCc3ccccc32)c1 (stereo not drawn)	3.9	7.7	8.1	4674	1.9	4.6	44.0
23	O=C(Oc1ccccc1N1C(=O)C2CCCCC2C1=O)c1ccccc1 (stereo not drawn)	1.8	15.0	4.6	4285	5.5	3.7	1.8
24	Nc1nc(-c2ccc(Oc3ccccc3)cc2)cs1	3.9	3.2	62.7	3534	-5.4	0.0	-70.7
25	COc1cccc(-c2nnc(SCCC(=O)O)n2C)c1	6.8	-1.9	9.6	23530*	1.6	0.9	-32.7
26	FC(F)(F)c1cc(-c2ccco2)nc(NCc2ccco2)n1	13.9	-0.2	-9.1	10173	7.5	8.1	-12.1
27	O=C(c1ccccc1NS(=O)(=O)c1cccc([N+](=O)[O-])c1)N1CCCC1	4.5	-8.9	1.8	5677	7.4	6.3	-13.9
28	CCN(C[C@H]1N[C@@](CC)(C(=O)OC)[C@H]2C(=O)N(Cc3ccccc3)C(=O)[C@@H]12)C(C)=O	-0.2	/	6.9	3320	4.2	-0.8	-22.4
29	Cn1cnnc1SCC(=O)Nc1sc2c(c1C(N)=O)CCC2	-2.8	0.6	-21.6	4988	-3.4	3.2	-19.1
30	Cc1ccc(-n2ncc3c(NCCCN4CCCC4=O)ncnc32)c(C)c1	3.5	-8.2	6.6	2735	5.7	11.9	-12.3
31	COCC(=O)N1CCC(Oc2ccc(C(=O)NC3CCOC(C)(C)C3)cc2)CC1 (stereo not drawn)	0.5	-5.2	3.9	4512	5.9	-4.9	-7.8
32	O=C(NC1CC1)c1cc2c(s1)CS(=O)(=O)C2	6.1	-0.1	2.6	2565	-4.6	2.3	2.0
33	COc1ccc(OC)c(NC(=O)CCNC(=O)Cn2cnc3ccccc3c2=O)c1	5.3	-17.3	5.0	4583	-0.7	-2.6	-13.2
34	O=C(Nc1nccs1)c1ccc(Cl)cc1[N+](=O)[O-]	-0.8	-18.3	2.8	9562	-7.2	7.4	-20.6
35	CCOc1c(S(=O)(=O)N2CCCC2)ccc(Cl)c1Cl	3.5	0.2	3.4	4563	/	/	-4.6
36	CC1(c2nnc(-c3cccc(Cl)c3)o2)CC(c2cccc(F)c2)=NO1 (stereo not drawn)	5.1	-5.8	7.9	3020	6.8	4.5	-16.9
37	O=C(Nc1nnc(Cc2ccc(Cl)cc2)s1)c1ccco1	-0.3	-2.9	0.1	5164	10.4	3.6	-17.0
38	COc1ccccc1C(=O)Nc1ccc2c(C)cc(=O)oc2c1	-2.6	3.3	5.4	3643	-2.6	6.6	-67.0
39	COc1ccc([N+](=O)[O-])cc1NC(=O)c1cn(-c2ccc(C)c(C)c2)c(=O)c2ccccc12	-6.1	4.3	-6.8	2194	-10.1	2.7	-22.7
40	Cc1ccc(S(=O)(=O)CCc2ccccn2)cc1	7.2	-5.2	-2.8	4250	6.7	5.1	-23.7
41	COc1ccccc1N1CCN(C(=O)c2noc(C)c2[N+](=O)[O-])CC1	2.6	1.7	0.3	4239	0.8	-6.0	4.7
42	CC(=O)N1c2c(cc(Br)cc2S(=O)(=O)NCc2ccc3c(c2)OCO3)CC1C (stereo not drawn)	5.9	-5.7	4.4	8189	5.8	4.0	-9.9
43	Cc1cc(C(F)F)n2ncc(C(=O)N3CCc4ccccc4C3)c2n1	0.2	-12.3	8.9	4871	/	/	-18.1
44	CSc1n[nH]c(NC2=CC(=O)CCC2)n1	-3.2	-0.6	1.9	4339	-7.1	-10.6	-9.9
45	CCOc1ccc(NC(=O)N2CCC(n3c(=O)[nH]c4ccccc43)CC2)cc1	-8.6	0.6	8.0	6295	2.5	12.7	-25.0
46	O=C(NN=C1CCS(=O)(=O)c2ccc(F)cc21)c1cccnc1	4.9	/	2.7	/	7.7	2.4	/
47	COc1cc(C(=O)NCCC(=O)N2CCC3(CC2)NCCc2[nH]cnc23)cc(OC)c1OC	2.9	-0.4	-0.1	5665	5.7	4.4	-16.3
48	O=C(Cc1ccc(O)cc1)N/N=C/c1cccs1	/	-4.9	/	4268	/	/	-20.3
49	Cc1nc2ccc(S(=O)(=O)Nc3cccc(-c4nc5cccnc5s4)c3C)cc2s1	4.9	12.8	0.1	4162	-4.1	-1.1	-9.4
50	Nc1ncnc2c1ncn2[C@@H]1O[C@H](CNS(=O)(=O)c2ccc3c(c2)CCN(C(=O)C(F)(F)F)C3)[C@@H](O)[C@H]1O	2.1	/	5.2	4265	-8.7	0.6	-20.1
51	CC1CCC(NC(=O)Cn2c(=O)oc3cc(S(=O)(=O)N4CCCC4)ccc32)CC1 (stereo not drawn)	2.8	-4.6	8.5	4203	4.5	3.8	-22.9
52	COCc1cc(=O)n2[nH]c(-c3cccc(Br)c3)cc2n1	1.2	2.1	-16.2	2685	/	/	-29.4
53	COC(=O)N/N=C(\C)c1ccc(OC(F)F)cc1OC(F)F	/	-17.8	/	2536	/	/	-15.6
54	CCOC(=O)C1C(C(=O)OC)=C(C(=O)OC)c2ccccc2N1S(=O)(=O)C(F)(F)F (stereo not drawn)	-1.9	/	-1.9	3430	-6.1	-3.1	-20.8
55	CCCCn1c(=O)c(C(=O)NCc2ccccc2OC)c(O)c2ccccc21	4.7	-9.1	25.3	3139	13.5	2.3	-14.8
56	COc1ccc(-n2ncc3c2CC(C)(C)CC3NC(=O)c2ocnc2C)cc1 (stereo not drawn)	0.2	-2.6	4.7	4939	8.3	2.9	-6.8
57	Cn1c(SCCOc2ccccc2Cl)nnc1-c1ccncc1	5.4	0.4	-5.1	10205	1.7	3.2	-17.6
58	CNc1nc(SCC(=O)OC)nc(N2CCOCC2)n1	0.3	-11.8	6.0	6609	5.7	-1.5	-22.6
59	C=CCNC(=S)N1CCc2c([nH]c3ccccc23)C1C (stereo not drawn)	-4.8	1.8	2.0	4228	6.1	2.0	-13.9
60	C/C(=N\Nc1ccc([N+](=O)[O-])cc1)c1ccc(N)cc1	/	2.8	/	11693	/	/	-22.8

# The list continues:
cpd	molecule	RN4220 kill	BJeLR viability	ugtP null kill	Bead autofluor	Mtb hypoxia rep	Mtb hypoxia rep growth	PrP UTR inh
61	CC(C)CNS(=O)(=O)c1ccc(S(=O)(=O)N2CCCN(Cc3ccccc3)C2)cc1	2.0	4.4	-0.8	21949*	12.2	13.1	-22.6
62	COCc1nnc(NC(=O)CCSc2ccccc2)s1	2.5	-0.8	2.4	20338*	4.8	5.9	-12.6
63	Cc1ccc(NC(=O)CCc2nc3sc4c(c3c(=O)[nH]2)CCCC4)c(Br)c1	-1.2	-9.6	-2.8	5637	-6.0	-6.4	-22.3
64	C=C1[C@H]2O[C@H]2[C@@H](OC(C)=O)[C@@]2(C)[C@@H](OC(C)=O)C[C@@H](OC(C)=O)[C@@](C)(O)[C@@H]2[C@@H](OC(C)=O)[C@@]2(O)[C@@H](C)C(=O)O[C@H]2[C@H]1Cl	-1.8	/	-0.2	3772	-2.8	-3.1	-45.5
65	CC(=O)N1CCc2ccccc2C1CC(=O)O (stereo not drawn)	2.5	-9.9	8.3	4551	17.0	11.6	-3.5
66	CC(=O)N/C(=N/c1nc(C)cc(C)n1)Nc1ccccc1Cl	5.1	/	11.7	/	4.2	3.7	/
67	CC(C)c1nc2cc(C(=O)N(C)C3CCOCC3)ccc2o1	0.2	2.7	2.5	5037	0.8	-1.1	-19.2
68	CN(Cc1cccc2cnccc12)C(=O)CCc1nnc(CCc2ccccc2)o1	5.0	6.4	18.1	2204	16.0	0.4	-38.9
69	CCCCOc1ccc(CN2CCCCC2)cc1	5.6	-0.2	3.8	12284	-5.4	-5.8	-15.5
70	CN(C)C(=O)COc1ccc2cc(-c3ccccc3)c(=O)oc2c1	3.9	-7.2	-5.6	9784	10.8	5.1	-48.0
71	CN(C)CCn1c(COc2ccccc2)nc2ccccc21	4.4	1.4	7.6	5789	3.6	6.4	11.4
72	O=C(Cc1ccsc1)NNC(=O)c1cccc(Cl)c1	-1.6	-1.6	-1.5	4303	8.2	-2.4	-9.6
73	Cc1ccc2c(c1)C(=O)CC(c1ccc3c(c1)OCCO3)O2 (stereo not drawn)	3.5	6.8	6.7	4331	8.4	5.6	-32.1
74	CC(C)(C)n1nnnc1CN1CCN2CCCC2C1 (stereo not drawn)	/	-2.8	/	4773	/	/	-20.1
75	CCOC(=O)c1c(/N=C/c2cccc([N+](=O)[O-])c2O)sc(C)c1C	/	-26.0	/	2159	/	/	-2.8
